KCNQ2 block = KCNQ2 potassium channel inhibitors, primary screen, cell-based, CHO-K1, FluxOR thallium flux, B-score (AID 2156); Potassium voltage-gated channel subfamily KQT member 2 (Rattus norvegicus), O88943; 20 min; stronger effect = lower value; only compounds with negative scores are shown here; some inactives read as strong as hits; B-score at 10 µM; hit rate 1.1% among 310,000;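 active = fluorescence ratio B-score at most minus 3 library SDs, with starting brightness B-score within 2 library SDs, cut at about -5.5 in these data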
Target sequence (O88943 whole entry, looked up): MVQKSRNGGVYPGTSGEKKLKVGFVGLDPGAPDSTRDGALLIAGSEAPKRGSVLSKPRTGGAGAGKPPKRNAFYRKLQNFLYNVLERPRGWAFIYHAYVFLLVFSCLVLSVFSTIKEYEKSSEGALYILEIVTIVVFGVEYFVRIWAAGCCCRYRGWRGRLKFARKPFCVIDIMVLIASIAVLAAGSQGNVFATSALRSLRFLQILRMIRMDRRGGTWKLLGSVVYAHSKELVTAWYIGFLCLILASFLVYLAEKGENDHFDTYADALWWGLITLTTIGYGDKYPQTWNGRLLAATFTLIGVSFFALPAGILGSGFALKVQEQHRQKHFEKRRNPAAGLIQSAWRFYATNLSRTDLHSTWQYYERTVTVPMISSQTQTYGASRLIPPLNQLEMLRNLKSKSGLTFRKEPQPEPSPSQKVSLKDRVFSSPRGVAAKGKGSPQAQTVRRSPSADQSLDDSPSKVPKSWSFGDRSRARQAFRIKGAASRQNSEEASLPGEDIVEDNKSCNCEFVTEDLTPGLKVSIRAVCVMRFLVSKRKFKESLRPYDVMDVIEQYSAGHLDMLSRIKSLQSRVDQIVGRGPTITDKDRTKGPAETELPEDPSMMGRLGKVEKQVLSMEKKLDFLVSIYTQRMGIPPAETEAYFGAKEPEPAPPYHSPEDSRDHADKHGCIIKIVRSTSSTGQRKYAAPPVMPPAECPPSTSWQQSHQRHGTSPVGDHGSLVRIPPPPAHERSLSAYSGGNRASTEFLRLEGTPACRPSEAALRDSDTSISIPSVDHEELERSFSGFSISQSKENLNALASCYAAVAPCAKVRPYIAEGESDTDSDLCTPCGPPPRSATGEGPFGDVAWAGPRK
KCNQ2 block baseline = recorded beside KCNQ2 block, whose call it bears; B-score; measured here: initial fluorescence intensity artifact check;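 brightness before thallium and not channel activity; 0 = typical well and far values either way flag optical interference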
Active calls of the source: *; i = inactive. An excerpt; the hit share may differ from the screen's.

SMILES | KCNQ2 block | KCNQ2 block baseline
COCCN(C(=O)CSc1nnc(-c2cccc(OC)c2)n1C)c1c(N)n(Cc2ccccc2)c(=O)[nH]c1=O | i | -0.73
CCOC(=O)C(C(=O)N1CCOCC1)C1CCCCC1 (stereo unspecified) | i | 1.5
CCC(=O)N1N=C(c2cccs2)CC1c1ccco1 (stereo unspecified) | i | -0.81
CCOC(=O)CN(C(=O)CSc1nnc2c(n1)[nH]c1ccc(F)cc12)c1ccccc1 | i | 0.03
Cc1nnsc1C(=O)Nc1ccc(S(=O)(=O)N2CCCCC2)cc1 | i | -0.24
CCCNC(=O)COc1coc(CN2CCN(c3ccc(F)cc3)CC2)cc1=O | i | -0.1
COc1cc2nc(C)sc2cc1SC | i | 0.59
O=S(=O)(Nc1cccc(-c2nc3cccnc3s2)c1)c1ccc2c(c1)OCCO2 | i | -1.7
O=C(COc1ccc2ccccc2c1Br)Nc1ncn[nH]1 | i | -0.93
C=CCN1C(=O)C2(C(C#N)=C(N)Oc3n[nH]c(CCC)c32)c2ccccc21 (stereo unspecified) | i | -0.02
O=C(COc1ccc2ccccc2c1)N1CCN(C(=O)c2ccc([N+](=O)[O-])cc2)CC1 | i | -0.37
CC(C)(C)c1ccc(C(=O)N2CCN(C(=O)c3ccco3)CC2)cc1 | i | 1.3
CCc1cc(C(=O)NNC(=S)NC2CCCCC2)cs1 | i | 2.1
CN(C)S(=O)(=O)c1ccc(NC(=O)CSc2nc3ccccc3n2-c2ccccc2)cc1 | i | 0.02
CC1CCCC(NC(=O)CCC(=O)N2CCOc3ccccc32)C1C (stereo unspecified) | i | 1.4
CC(C)c1ccccc1OCCNS(C)(=O)=O | i | -0.1
CCOC(=O)c1c(C)[nH]c(C(=O)COC(=O)[C@H](C)NC(=O)c2ccccc2Cl)c1C | i | 1.8
CCc1ccc2nc3sc(C(=O)Nc4nnc(CC)s4)c(N)c3cc2c1 | i | 2.6
CN1CCc2c(C#N)c(N3CCOCC3)nc(NCC3CCCO3)c2C1 (stereo unspecified) | i | 1.3
O=C(O)/C=C/c1ccc(S(=O)(=O)Nc2ccc(C(=O)NCC(=O)O)cc2)cc1 | i | 0.74
CCn1c(SCC(=O)NC)nnc1C(C)C | i | -0.62
N#Cc1nc(Cc2ccccc2)oc1NCc1ccccc1Cl | i | -1.1
CC(=O)Nc1ccc2nc(N)sc2c1 | i | 0.68
Cc1ccc2nc(-c3ccccc3)c(CN3CCSCC3)n2c1 | i | -2.1
COc1ccccc1C(=O)Nc1c2c(nn1-c1cccc(C)c1C)CS(=O)(=O)C2 | i | 0.22
CCC(C(=O)N1CCCC1)n1nc(C)c2c(C)n(-c3ccccc3)nc2c1=O (stereo unspecified) | i | 1.9
CC(=O)Nc1cccc(NC(=O)c2cc(-c3ccccn3)nc3ccc(Cl)cc23)c1 | i | -0.31
COC(=O)c1ccc(COc2ccc3c(c2)CCC3)o1 | i | -0.17
O=C(Cn1nc(-c2ccccc2)ccc1=O)Nc1ccc(-n2cnnn2)cc1 | i | -2.5
Cc1ccc(NC(=O)Cn2nnc3ccccc32)c(C)c1 | i | -0.9
O=C1CS/C(=N/N=C/c2cccs2)N1 | i | -0.15
COc1cc(C(=O)NCCOc2cc(C)ccc2C(C)C)cc(OC)c1OC | i | 1.1
C[C@H](NC(=O)C1CCN(S(=O)(=O)c2ccccc2)CC1)C(=O)NCc1ccccc1 | i | 0.67
N/C(CC(=O)NC1CCCCC1)=N\OCC(=O)Nc1ccc(Cl)c(Cl)c1 | i | -1.1
CC(C)NS(=O)(=O)c1ccc2c(c1)oc(=O)n2C | i | -0.28
COC(=O)c1c(-c2ccc3ccccc3c2)csc1NC(=O)Cc1ccc(OC)c(OC)c1 | i | 1.3
CCC(=NC(CC)CO)C1=C(O)CC(C)(C)CC1=O (stereo unspecified) | i | 0.74
Cn1cccc1/C=N/n1cnnc1 | i | 1.8
C#CCSc1nnc(-c2ccc([N+](=O)[O-])cc2)o1 | i | 0.81
Cc1cnc(NC(=O)c2c(O)c3cccc4c3n(c2=O)CCC4)s1 | i | -0.81

The list goes on; it opens with the seven that closed the last part.
SMILES | KCNQ2 block | KCNQ2 block baseline
N/C(CC(=O)NC1CCCCC1)=N\OCC(=O)Nc1ccc(Cl)c(Cl)c1 | i | -1.1
CC(C)NS(=O)(=O)c1ccc2c(c1)oc(=O)n2C | i | -0.28
COC(=O)c1c(-c2ccc3ccccc3c2)csc1NC(=O)Cc1ccc(OC)c(OC)c1 | i | 1.3
CCC(=NC(CC)CO)C1=C(O)CC(C)(C)CC1=O (stereo unspecified) | i | 0.74
Cn1cccc1/C=N/n1cnnc1 | i | 1.8
C#CCSc1nnc(-c2ccc([N+](=O)[O-])cc2)o1 | i | 0.81
Cc1cnc(NC(=O)c2c(O)c3cccc4c3n(c2=O)CCC4)s1 | i | -0.81
Cc1cc(C(=O)N2CCN(c3ncccn3)CC2)c(C)o1 | i | -1.2
Cc1cnn(CCC(=O)NNC(=S)NCC(C)C)c1 | i | -1.5
COc1ccc(S(=O)(=O)NC(C)c2ccccc2)cc1C(=O)N1CCCCC1 (stereo unspecified) | i | 0.35
O=C(Cc1c(F)cccc1Cl)N/N=C/c1cccs1 | i | 0.35
CCOC(=O)C(CC)(CC)C(=O)/C=C/c1ccc(OC)cc1 | i | -0.7
CCOc1ccccc1NC(=O)CC1SC(=N)N(c2ccccc2)C1=O (stereo unspecified) | i | 0.66
COc1ccc(C(=O)NC(=S)Nc2ccc3c4c(cccc24)CC3)cc1OC | i | 0.81
Cn1c(=O)c2sccc2n2c(CCCC(=O)NCCc3ccccc3)nnc12 | i | -0.36
Cc1ccc(NC(=O)N2CCCN(Cc3ccc(F)cc3)C2)cc1C | i | -2.4
Clc1ccc(SCc2cc(-c3ccccc3)no2)cc1 | i | 0.52
C=CC[n+]1c(-c2ccc(C)cc2)csc1Nc1c(C)n(C)n(-c2ccccc2)c1=O | i | 0.18
CCC(C(=O)N1CC2(C)CC1CC(C)(C)C2)N1C(=O)c2ccccc2C1=O (stereo unspecified) | i | 1.7
Cc1c(Cc2ccc3c(c2)OCO3)sc(NC(=O)c2cccc3ccccc23)c1C(N)=O | i | -0.32
CCc1ccc(NC(=O)C(C)OC(=O)C2CCC(=O)N2)cc1 (stereo unspecified) | i | -0.62
C[C@H](NC(=O)c1nc[nH]c1C(=O)N[C@H](C)c1ccccc1)C(=O)OC(C)(C)C | i | -0.24
CCN(CCS(=O)(=O)c1ccc(Cl)cc1)C(=O)Nc1ccccc1 | i | 0.8
COc1cc2c(cc1OC)CN(CC(=O)NC(=O)NC1CCCCC1)CC2 | i | -0.26
O=C(Cn1nc(-c2ccccc2)ccc1=O)Nc1ccc(N2CCN(C(=O)c3cccs3)CC2)cc1 | i | 0.93
CN(C)c1nc(-c2ccccc2)c2cc(Cl)ccc2n1 | i | -0.19
Cn1nccc1C(=O)N1CCc2ccccc21 | i | -2.4

Entries of single compounds, quoted from the list:
Entry for Clc1ccc(SCc2cc(-c3ccccc3)no2)cc1 : KCNQ2 block: i; KCNQ2 block baseline: 0.52
Entry for CCN(CCS(=O)(=O)c1ccc(Cl)cc1)C(=O)Nc1ccccc1 : KCNQ2 block: i; KCNQ2 block baseline: 0.8

(next part)
SMILES | KCNQ2 block | KCNQ2 block baseline
CC(=O)Nc1ccc(NC(=O)CSc2ncc(C(=O)Nc3ccc(Cl)cc3)c(=O)n2C)cc1 | i | 0.18
C=CCc1ccc(OCCOc2cccc3cccnc23)c(OC)c1 | i | 0.75
COc1ccc(C(=O)/C=C2/C(=O)Nc3ccccc32)cc1OC | i | 0.79
COc1ccccc1CNC(=O)C1CCN(S(=O)(=O)c2ccc3nc4c(c(C(=O)O)c3c2)CCCC4)CC1 | i | -0.01
CC1=C(C(=O)N(C)C)C(c2ccccc2OC(F)F)NC(=O)N1 (stereo unspecified) | i | -0.56
N#Cc1nc(COc2ccccc2Cl)oc1NCc1ccco1 | i | 0.46
COc1cccc(-c2nn(-c3ccccc3)cc2C(=O)Nc2nccs2)c1 | i | -1.6
COc1ccc(S(=O)(=O)N(CC(=O)NCc2ccncc2)Cc2ccccc2)cc1 | i | -0.92
CC1CN(S(=O)(=O)c2cccc(C(=O)NCCCn3ccnc3)c2)CC(C)O1 (stereo unspecified) | i | 2.2
OCCCNc1nc(-c2ccc(Br)cc2)nnc1-c1ccc(Cl)cc1 | i | 0.94
Cc1cc(C)cc(NC(=O)Oc2ccccc2N2CCCCC2)c1 | i | -0.3
CC(C)[C@H](NC(=O)[C@H]1N2C(=O)c3ccccc3C2SC1(C)C)C(=O)NCc1ccco1 (stereo partly specified) | i | 0.25
Cc1ccc(S(=O)(=O)N[C@@H](CC(C)C)C(=O)N2CCC(C(=O)N[C@@H](Cc3ccccc3)C(=O)O)CC2)cc1 | i | -1.2
Cc1cccc(C(=O)NC2CCN(C(=O)Nc3ccccc3C)CC2)c1 | i | 0.67
O=C(NCc1cccnc1)c1ccc([N+](=O)[O-])o1 | i | -0.65
CCC(=O)N1CCN(c2ccccc2NC(=O)COc2cccc(C)c2C)CC1 | i | 0.94
COC(=O)CCP(=O)(O)Cc1ccccc1CP(=O)(O)CCC(=O)OC | i | -0.02
COc1cc(CCC(=O)OCC(=O)Nc2ccc(F)c(F)c2F)cc(OC)c1OC | i | -0.52
CCO/C([O-])=N/c1sn[n+](C)c1C | i | 1.7
CC(NS(=O)(=O)c1ccc(Br)cc1)C(=O)NCc1ccco1 (stereo unspecified) | i | -0.39
O=C(O)CN1C(=O)c2ccc(Oc3ccc([N+](=O)[O-])cc3)cc2C1=O | i | 0.12
CCCCn1nnnc1SCC(=O)NCc1ccccc1 | i | 2.6
Cc1ccc(C(=O)Nc2cc(Cl)ccc2Oc2ccccc2)cc1[N+](=O)[O-] | -6.1* | 0.02*
COc1ccc(C(=O)NC2CCN(S(=O)(=O)c3ccc(C)cc3)CC2)cc1 | i | -0.18
Cc1ccccc1CSc1nnc(C)c(=O)n1N | i | 1.1
CC(C)N(C(=O)CSc1nnc(CSc2ncccn2)n1C)C(C)C | i | 0.85
CN(C)c1ccc(C(CC(=O)O)NC(=O)c2ccc(Cl)cc2)cc1 (stereo unspecified) | i | 0.66
COc1ccc(C)cc1N(CC(=O)O)S(=O)(=O)c1ccc(C)cc1 | i | -1.6
CC(C)n1c(SCC(=O)Nc2ccccc2N2CCOCC2)nc2c1c(=O)n(C)c(=O)n2C | i | -0.5
COc1ccc(-c2cc(C(F)(F)F)nc(S(C)(=O)=O)n2)cc1OC | i | -0.71
COc1ccc(C(=O)COC(=O)CNC(=O)c2cccs2)cc1Br | i | -0.01
C/C(=N/OCO/N=C(/C)c1ccc(F)cc1)c1ccc(F)cc1 | i | -1.2
Clc1cccc(N2CCN(Cc3nc(-c4ccccc4)no3)CC2)c1 | i | 0.05
CCCOC(=O)Nc1ccc(N2CCCCC2)cc1 | i | -0.02
COc1ccccc1N1CCN(C(=O)c2cc(-c3ccccc3O)on2)CC1 | i | -0.04
O=C(O)C(Cc1ccccc1)N=Cc1c(O)c2ccccc2oc1=O (stereo unspecified) | i | 4.9
CSc1nc(Oc2ccc(=O)n(C)n2)nc(N(C)C)n1 | i | 0.82
O=C(NCc1ccc(Cl)cc1)C1CC(O)CN1S(=O)(=O)c1ccc(Cl)cc1 (stereo unspecified) | i | 2.2
CNC(C)C#Cc1c(-c2cc(OC)c(OC)c(OC)c2)noc1C (stereo unspecified) | i | -3.6
CC1CCC/C(=N\NC(=O)c2ccncc2)C1 (stereo unspecified) | i | -0.27

In the list so far, these contain bromine:
SMILES | KCNQ2 block | KCNQ2 block baseline
O=C(COc1ccc2ccccc2c1Br)Nc1ncn[nH]1 | i | -0.93
OCCCNc1nc(-c2ccc(Br)cc2)nnc1-c1ccc(Cl)cc1 | i | 0.94
CC(NS(=O)(=O)c1ccc(Br)cc1)C(=O)NCc1ccco1 (stereo unspecified) | i | -0.39
COc1ccc(C(=O)COC(=O)CNC(=O)c2cccs2)cc1Br | i | -0.01

More compounds.
SMILES | KCNQ2 block | KCNQ2 block baseline
COc1ccccc1CNc1ccc(C(=O)O)cc1 | i | 0.26
O=C(Nc1ccccc1)C(=O)c1cn(CC(=O)N2CCCCC2)c2ccccc12 | i | -0.01
CCOC(=O)c1cnn(-c2ccccc2)c1NC(=O)CCl | i | 1.9
Cc1cc(NS(=O)(=O)c2ccc(NC(=S)NC(=O)/C=C/c3ccccc3)cc2)no1 | i | 0.33
COc1ccccc1-c1nc2s/c(=C\c3cccs3)c(=O)n2n1 | i | 2.8
COc1ccc(N(CC(=O)N/N=C/c2ccc(-c3ccc([N+](=O)[O-])cc3)o2)S(=O)(=O)c2ccc(C)cc2)cc1Cl | i | 2.2
O=C(COC(=O)Cn1cnc2ccccc2c1=O)Nc1ccc(Cl)cc1 | i | -0.08
Cc1ccc(N/C(N)=N/c2nc(C)cc(N3CCCCC3)n2)c(C)c1 | i | -0.03
CCn1c(SCC(=O)N2CCC(C)CC2)nc2c(c1=O)SC(C)C2 (stereo unspecified) | i | 0.3
COc1cccc(N(CC(=O)Nc2ccccc2C)S(C)(=O)=O)c1 | i | 1.1
COc1ccc(OC)c(NC(=O)Cn2c(CCC(=O)O)ccc2-c2ccc(C)cc2)c1 | i | 0.91
Cc1nnc(NC(=O)CSc2nnc(-c3ccco3)o2)s1 | i | 1.3
COc1cc(/C=C2\SC(=Nc3ccccc3OC)NC2=O)ccc1O | i | 1.7
CN(CC(=O)Nc1cccc(F)c1)C(=O)c1ccncc1 | i | 1.5
COc1ccc(C2C(C(=O)Nc3cc(OC)c(OC)c(OC)c3)c3ccccc3C(=O)N2C)cc1 (stereo unspecified) | i | 0.82
O=C(N/N=C\C=C\c1ccco1)C1COc2ccccc2O1 (stereo unspecified) | i | -1.2
CC(C)NC(=O)C1(O)c2ccccc2NC(=O)N1c1ccc(Cl)c(Cl)c1 (stereo unspecified) | i | -0.73
CC/C(C)=N/Nc1nc2c(c(=O)[nH]c(=O)n2C)n1CCc1ccccc1 | i | 1.1

Compound activity from PubChem BioAssay.
